# Compound activity from PubChem BioAssay.
# NPYLR7 agonist – mosquito NPYLR7 agonism | HEK293T NPYLR7/Galpha15, GCaMP6s calcium fluorescence | activation, % at 10 µM | 270,000 tested, 0.15% active; in the data active = activation above about 40%;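 note: 0% = vehicle and 100% = reference agonist at the receptor; some compounds past the cut are filed as inactive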
# NPYLR7 agonist max-min – second read-out of NPYLR7 agonist, no call of its own (marks repeat the call); activation, %; measured here: Max-Min RFU normalised activation; some inactives read as strong as hits;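 span of the calcium signal over five minutes; 0% = vehicle and 100% = native peptide agonist; compound fluorescence can raise it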
# An asterisk follows results filed as active; & = joins results of further samples. A portion of the library; count on the stated rates, not on these rows.
# A first look (six entries):
SMILES,NPYLR7 agonist,NPYLR7 agonist max-min
CC(OC(=O)c1c(F)cccc1F)C(=O)Nc1ccc2c(c1)CCC2 (configuration not stated),-3,-5
Cc1cccc2cc(C3CC(c4ccco4)=NN3C(=O)C(C)C)c(Cl)nc12 (configuration not stated),4,-1
CCc1nc2ccc(C(=O)NCc3ccccc3OC)cn2c1N(CC)C(C)=O,-3,-8
Cc1cc(F)ccc1Oc1cc(N2CCN(C(=O)c3ccc(C(F)(F)F)cc3)C(C)C2)ncn1 (configuration not stated),-5,0
N#Cc1ccc(S(=O)(=O)N2CCN(c3nccc(-c4cccc(C(F)(F)F)c4)n3)CC2)cc1,1,-7
O=C(C1CCCO1)N1CCN(Cc2cn[nH]c2-c2ccc(F)cc2)CC1 (configuration not stated),-14,-10

# Results, repeating the preview:
SMILES,NPYLR7 agonist,NPYLR7 agonist max-min
CC(OC(=O)c1c(F)cccc1F)C(=O)Nc1ccc2c(c1)CCC2 (configuration not stated),-3,-5
Cc1cccc2cc(C3CC(c4ccco4)=NN3C(=O)C(C)C)c(Cl)nc12 (configuration not stated),4,-1
CCc1nc2ccc(C(=O)NCc3ccccc3OC)cn2c1N(CC)C(C)=O,-3,-8
Cc1cc(F)ccc1Oc1cc(N2CCN(C(=O)c3ccc(C(F)(F)F)cc3)C(C)C2)ncn1 (configuration not stated),-5,0
N#Cc1ccc(S(=O)(=O)N2CCN(c3nccc(-c4cccc(C(F)(F)F)c4)n3)CC2)cc1,1,-7
O=C(C1CCCO1)N1CCN(Cc2cn[nH]c2-c2ccc(F)cc2)CC1 (configuration not stated),-14,-10
Cc1ccc(OCC(O)C(C)NC(C)C)c2c1CCC2 (configuration not stated),3,-8
CN1CCN(Cn2nc(-c3ccccc3)oc2=S)CC1,6,7
COc1nc(SC)nnc1C,0,8
CN(CCNS(=O)(=O)c1cccc2nsnc12)Cc1ccccc1,2,1
COc1ccc(C(=O)Nc2c(C)nc3ccc(C)cn3c2=O)cc1,5,2
O=c1cc(-c2ccccc2)[nH]n1-c1nc(-c2ccccc2)cs1,-17,-21
CCOC(=O)c1c(C)n(-c2ccccc2)c2ccc(OC(=O)c3ccccc3C)cc12,0,-6
COC(=O)c1cc(CN(C)C(=O)Cn2ncc3ccccc3c2=O)oc1C,0,-1
CCN1CCN(c2nc(-c3ccccc3)nc3c2CN(C(=O)Nc2ccc(Br)cc2)CC3)CC1,-3,-1
CCn1cnnc1CNC(=O)CCNC(=O)C12CC3CC(CC(C3)C1)C2,2,1
COc1ccc(C(NC(=O)C2CCN(CCCc3ccccc3)CC2)c2ccccn2)cc1 (configuration not stated),23,11
CCOC(=O)Cn1c(=NC(=O)c2cc(Cl)sc2Cl)sc2cccc(F)c21,3,3
CCC(C)NC(=O)c1cc(NC(=O)c2ccccc2Cl)ccc1N1CCCCC1 (configuration not stated),-2,3
CCOC(=O)c1cc(-c2ccc(N3CCN(C(=O)c4cccnc4Cl)CC3)cc2)n(-c2cccc(F)c2)n1,24,14
CC1OC(C)(C)N(C(=O)OC(C)(C)C)C1C(=O)NCc1cccnc1N1CCCCC1 (configuration not stated),10,9
COc1cccc(N=c2scc(-c3ccccc3)n2CCNC(C)=O)c1,-5,-7
Cc1cc(C)cc(-n2nc3c(c2NC(=O)C2CC2)CSC3)c1,0,3
Cc1cc(NC(=O)c2nn3c(C(F)(F)F)cc(-c4ccco4)nc3c2Cl)no1,0,1
CCC(NC(=O)c1cccc(N2CCCS2(=O)=O)c1)c1ccc(Br)cc1 (configuration not stated),-4,-2
COC(=O)[C@@H]1[C@@H](NC(=O)CSC)CCN1C(C)=O,-8,-14
O=S1(=O)CC(O)C(NCc2ccco2)C1 (configuration not stated),-4,-13
COC(=O)C1=CN(C2CC2)C=C(C(=O)OC)C1c1cccs1,3,-4
Cc1c(/C=N\NC(=O)C(C)SCc2ccccc2)c(Cl)nn1-c1ccccc1 (configuration not stated),-4,-7
O=C(O)CCCN1CCC(O[C@@H](c2ccc(Cl)cc2)c2ccccn2)CC1,15,0
O=C(NCc1ccccc1)NNC(=O)c1cccn(Cc2cccc(Cl)c2)c1=O,4,0
CCc1ccccc1-c1nccn1CCN(C)C,-2,0
CC(C)NS(=O)(=O)c1ccc(NS(=O)(=O)c2ccc(Cl)c(C(F)(F)F)c2)cc1,0,21
Cn1c(=O)c2c(nc(N3CCN(CCO)CC3)n2CCCc2ccccc2)n(C)c1=O,11,8
CCOCC(=O)N1CCN(Cc2cccc(-c3noc(CC(C)C)n3)c2)CC1,2,0
COc1ccc(S(=O)(=O)Oc2cc(CN(Cc3ccco3)C(=O)CC(C)(C)C)ccc2OC)cc1,20,6
COCCNC(=O)c1ccc(-n2ccnc2)o1,3,-2
CCCCN(C)c1c(C)nc2ccc(C(=O)NCCCN(C)C)cn12,5,-9
CC(=O)NC1C(OC2CC(C)CCC2C(C)C)OC(COC(C)=O)C(OC(C)=O)C1OC(C)=O (configuration not stated),-1,-3
CC(C)N(C)c1ccc(NC(=O)N2CCSC3CCCCC32)cc1F (configuration not stated),-3,-2
O=C(c1cccc(Cl)c1F)N1CCCC(CO)(Cc2ccc(F)cc2)C1 (configuration not stated),4,2
CCC1C(=O)NCCN1Cc1ccc2c(c1)CN(Cc1ccc(OC)c(OC)c1)CCO2 (configuration not stated),27,14
CCCCc1nc(N2CCN(S(=O)(=O)c3ccc(F)cc3)CC2)c2c3c(sc2n1)CCCC3,-2,0
COCCCNCc1nc2scc(-c3ccc(C)c(C)c3)c2c(=O)[nH]1,9,10
Cc1ccc(C(=O)COC(=O)C23CC4CC(CC(O)(C4)C2)C3)s1,13,20
CN(C)c1nc(N)nc(-c2nc3ccccc3s2)n1,-3,-7
CNC(=O)Cn1c(CO)cnc1SCc1c(F)cccc1Cl,9,10
CSc1ncccc1C(=O)N1CCCC(CCC(=O)N(C)CCc2ccccn2)C1 (configuration not stated),4&-6,2&-2
CC(c1ccccc1O)N(C)C(=O)CSc1ccc(C(F)(F)F)cn1 (configuration not stated),3,2
CNC(=O)c1ccc(CSc2nccn2Cc2ccccn2)cc1,8,5

# Next part:
SMILES,NPYLR7 agonist,NPYLR7 agonist max-min
COC(=O)C(C)Sc1nnc(CNC(=O)c2ccc(C(C)(C)C)cc2)o1 (configuration not stated),1,0
O=C(NCc1ccc(F)c(F)c1)c1cncn1-c1cccc(-c2cccc(OC(F)(F)F)c2)c1,26,36
CN1CCN(C(CNS(=O)(=O)Cc2ccc(Cl)cc2)c2ccsc2)CC1 (configuration not stated),5,-6
CCNCC(=O)N1CC(=O)N(c2cccc(Cl)c2C)C1,-8,-16
CC(=O)c1sc(N/N=C2/CC3CC2C(C)C3(C)C)nc1C (configuration not stated),6,4
O=C(CN(C(=O)Nc1ccc(Cl)cc1Cl)C1CC1)N1CC(=O)N(c2ccc(F)cc2)C1,1,6
Cn1nnc2c(SCC(=O)N3CCCC3)ncnc21,1,9
CCCCOc1ccc(C(=O)N(CCCCN2C(=O)c3ccccc3C2=O)c2ccc(Cl)cc2)cc1,-6,-12
Cc1cc(C(=O)OCC(=O)NC2CCS(=O)(=O)C2)c(C)n1-c1ccccc1 (configuration not stated),4,5
O=C1NC2(CCCC2)N=C1c1ccc(Cl)cc1Cl,10,4
O=c1c(N=Nc2ccc(Cl)c([N+](=O)[O-])c2)c(-c2ccccc2)[nH]n1-c1ccc([N+](=O)[O-])cc1,-12,-14
Cc1cccc(C(=O)Nc2cccc(NC(=O)C3CCCCN3C)c2)c1 (configuration not stated),-3,-4
Brc1ccc(-c2nn[nH]n2)cc1,-2,-5
Cc1cc(NS(=O)(=O)c2ccc(NC(=O)NC(C)(C)C)cc2)nc(C)n1,8,7
CC(C)CN(Cc1cccc(OS(=O)(=O)c2ccc(F)cc2)c1)C(=O)NC12CC3CC(CC(C3)C1)C2,0,10
CC(C)NC(=O)CC1SC(N)=NC1=O (configuration not stated),4,6
CNC(=O)NC(=O)CCN1CCN(C(=O)CC(C)c2ccccc2)CC1 (configuration not stated),8,5
CC(C)Cc1ncc2c(n1)CN(C(=O)c1ccc(S(C)(=O)=O)cc1)C2,-3,-7
COc1ccc(OCc2cc(C(=O)NCC(C)O)n[nH]2)c(Cl)c1 (configuration not stated),5,-8
COc1ccc(C2=NC(=Cc3csc(N(C(C)=O)c4ccccc4)n3)C(=O)O2)cc1OC,3,0

# Taken from above:
# Result for COc1ccc(C2=NC(=Cc3csc(N(C(C)=O)c4ccccc4)n3)C(=O)O2)cc1OC in NPYLR7 agonist max-min: 0
# Result for CC(C)CN(Cc1cccc(OS(=O)(=O)c2ccc(F)cc2)c1)C(=O)NC12CC3CC(CC(C3)C1)C2 in NPYLR7 agonist: 0

# Other compounds:
SMILES,NPYLR7 agonist,NPYLR7 agonist max-min
Cc1cc(NC(=O)C2CC(=O)N(c3ccc(F)cc3)C2)n(-c2nc3c(c(=O)[nH]2)CCC3)n1 (configuration not stated),8,3
O=C(Nc1ccc(Nc2ccc(-n3cccn3)nn2)cc1)Nc1cccc(Cl)c1,-6,-12
Cc1nc(Nc2ccc(NC(=O)Nc3ccccc3Cl)cc2)cc(OC(C)C)n1,4,1
O=c1[nH]c2ccccc2nc1-c1ccccc1,-4,-6
CCCN(CC(=O)N(CCc1ccc(OC)c(OC)c1)Cc1sccc1C)C(=O)C(C)(C)CCl,-1,0
COCCCNC(=O)C(NC(=O)c1ccccc1C)C1CCN(C(=O)c2cccs2)CC1 (configuration not stated),12,23
CCn1c(=O)c2c(nc3n2CCCN3c2ccc(OC)cc2)n(C)c1=O,15,5
Cc1cc(C)n(-c2cccc(CN3CCCC(CCC(=O)N4CCOCC4)C3)c2)n1 (configuration not stated),5,4
CC(C)N1CC(NC(=O)c2cccc(NCc3cccs3)c2)CC1=O (configuration not stated),2,13
COC(=O)C1=C(C)Nc2ncnn2C1c1cccc(OC)c1OC (configuration not stated),5,6
COc1ccc(/C(C)=N\OCC(=O)N2CCOC(COc3ccc4c(c3)CCCC4)C2)cc1 (configuration not stated),30,32
COc1ccc(C2c3cccn3-c3ccccc3N2C(=O)CN(C(=O)c2ccc([N+](=O)[O-])cc2Cl)C2CC2)cc1 (configuration not stated),2,6
O=C(N/N=C/c1c(Cl)cccc1Cl)C1=NNC(c2ccccc2)(c2ccccc2)C1,-4,-8
Cc1cccc(C(=O)Nc2sc3c(c2C(=O)NC(C)C)CCCC3)c1,20,9
Cc1ccc(-n2c(SCc3ccc(C(=O)NCc4cccc(C(F)(F)F)c4)cc3)nnc2-c2cccnc2)cc1,4,13
O=C(CN1C(=O)c2ccccc2C1=O)Nc1ccccc1C(=O)N1CCOCC1,1,0
O=C(CCOCc1ccccc1)NC1CC(=O)N(CC(F)(F)F)C1 (configuration not stated),1,7
COc1cc(CN2CCC(Oc3ccccc3C(=O)N3CCCCC3)CC2)ccc1F,22,16
O=C(c1cccc(CC2CCNCC2)c1)N1[C@@H]2CC[C@H]1CC(O)C2 (some centres not stated),3,0
COc1ccc(C2CC(=O)C3=C(C2)N=C(C)C(C(=O)OCC(C)C)C3c2ccncc2)cc1 (configuration not stated),-4,-6

# Profiles from above.
# O=C(CN1C(=O)c2ccccc2C1=O)Nc1ccccc1C(=O)N1CCOCC1 reads NPYLR7 agonist = 1; NPYLR7 agonist max-min = 0
# COc1ccc(C2c3cccn3-c3ccccc3N2C(=O)CN(C(=O)c2ccc([N+](=O)[O-])cc2Cl)C2CC2)cc1 (configuration not stated) reads NPYLR7 agonist = 2; NPYLR7 agonist max-min = 6
# COc1cc(CN2CCC(Oc3ccccc3C(=O)N3CCCCC3)CC2)ccc1F reads NPYLR7 agonist = 22; NPYLR7 agonist max-min = 16

# Carrying on.
SMILES,NPYLR7 agonist,NPYLR7 agonist max-min
CN(CC(=O)Nc1ccccc1Cl)Cc1nc(-c2cccs2)no1,4,-1
Cc1ccc(C)c(-n2nc(-c3cccs3)cc2C(=O)NC2CCN(Cc3ccccc3)CC2)c1,20,23
O=S(=O)(c1c(F)cccc1F)N1CCC(c2cn(Cc3ccc(C(F)(F)F)cc3)c3ccccc23)CC1,18,10
NC(=NOS(=O)(=O)c1ccc2ccccc2c1)c1ccccn1,5,4
CNS(=O)(=O)C1CCN(C(=O)c2cc3c(C)cc(C)cc3[nH]2)CC1,13,5
c1ccc(CNc2nc(Oc3ccncc3)c3sccc3n2)cc1,8,3
Cc1nnc(-c2ccccc2-c2ccc(C(=O)N(C)C)cc2)s1,-3,0
CCCn1c(N2CCN(CCc3ccccc3)CC2)nc2c1c(=O)[nH]c(=O)n2C,2,-2
O=c1[nH]nc(-c2cccs2)c2sc(N3CCCCC3)nc12,0,0
CC(C)(C)OC(=O)N1CCN(c2c3c(nc4ncnn24)CCCC3)CC1,28,15
CC(C)c1onc(-c2c(Cl)cccc2Cl)c1COc1ccc(/C=C/c2cccc(C(=O)O)c2)c(Cl)c1,-10,-15
O=C(c1cccnc1)N1N=C(c2ccncc2)CC1(O)C(F)(F)F (configuration not stated),-2,-3
O=S1(=O)N=C(N2CCN(S(=O)(=O)c3cccs3)CC2)c2ccccc21,12,10
Cc1cc(NC(=O)C(c2ccccc2)N2CCCC(C(F)(F)F)C2)no1 (configuration not stated),4,2
